Compound activity: PubChem, several laboratories
PKD1 kinase inh: inhibitors of human PKD1 kinase | inhibition, %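 (about 10 µM by stock and volumes)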 | 200,000 compounds, 0.056% hits | Q15139 | PKD1 kinase fluorescence polarization assay | AID 797;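 active means inhibition of 50% or more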;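 further: controls were vehicle for no effect and a reference inhibitor for full effect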
INS promoter inh: TRM-6 insulin promoter activity inhibition; TRM-6 cells (human fetal islet line), insulin promoter-eGFP reporter, imaging; reporter expression induced with tamoxifen; inhibition, % at 2 µM; 130,000 compounds, 0.9% hits; AID 1273;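 active means inhibition above the mean plus 3 SD, with well images judged a real hit on visual review, cut at about 60% in these data, passing the limit was not always enough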
HSV replic up: HSV replication enhancement. 220,000 compounds, 0.005% hits. HSV replication augmentation in cells, fold increase. maximum fold increase;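 active means peak rise of 1.5-fold or more in the series; tested in PC3 cells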;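 further: first round at 10 µM; read as green reporter fluorescence; hits show the peak of a series up to 25 µM; 1 = signal of infected wells without compound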
GALR2 ag: activates the human galanin receptor 2. 140,000 compounds, 0.48% hits. GALR2-expressing cells, agonist activation read-out. activation, %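 (tested at 5 µM)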;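 active means above mean plus 3 SD of all compounds, about 5% in these data, not always enough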;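 further: 0% = vehicle buffer wells and 100% = reference agonist at full effect; tested in CHO reporter cells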
Target sequence (O43603 whole entry, looked up): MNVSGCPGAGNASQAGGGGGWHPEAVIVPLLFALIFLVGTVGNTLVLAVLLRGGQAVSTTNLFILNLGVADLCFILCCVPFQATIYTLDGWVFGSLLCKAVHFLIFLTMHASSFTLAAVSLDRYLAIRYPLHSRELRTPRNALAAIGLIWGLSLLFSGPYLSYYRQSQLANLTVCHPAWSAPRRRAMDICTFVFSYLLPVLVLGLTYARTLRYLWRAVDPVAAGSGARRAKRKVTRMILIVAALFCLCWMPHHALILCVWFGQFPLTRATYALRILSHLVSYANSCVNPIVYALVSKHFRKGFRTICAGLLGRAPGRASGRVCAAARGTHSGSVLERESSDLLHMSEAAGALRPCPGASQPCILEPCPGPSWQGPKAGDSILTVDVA
RGS16-Gao HTS: modulates binding between human RGS16 and Galphao; bead-based flow cytometry RGS16-Galphao binding, fluorescence; actives lie on both sides; AID 1441; O15492+P09471; binding response (% of control), % at 10 µM; 220,000 compounds, 0.38% hits;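 active means below 25% or above 175%, edge rows of some plates excepted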;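 further: Galphao activated by GDP with aluminum fluoride before binding; 100% = wells without compound and 0% = beads without RGS; some results beyond the cut were filed as inactive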
Target sequence (O15492 whole entry, looked up): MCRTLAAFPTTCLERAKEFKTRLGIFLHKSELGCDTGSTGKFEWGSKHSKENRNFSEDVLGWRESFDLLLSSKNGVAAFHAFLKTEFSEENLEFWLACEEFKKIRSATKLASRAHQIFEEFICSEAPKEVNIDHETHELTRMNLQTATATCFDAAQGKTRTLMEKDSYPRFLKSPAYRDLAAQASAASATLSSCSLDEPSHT
Target sequence (P09471 whole entry, looked up): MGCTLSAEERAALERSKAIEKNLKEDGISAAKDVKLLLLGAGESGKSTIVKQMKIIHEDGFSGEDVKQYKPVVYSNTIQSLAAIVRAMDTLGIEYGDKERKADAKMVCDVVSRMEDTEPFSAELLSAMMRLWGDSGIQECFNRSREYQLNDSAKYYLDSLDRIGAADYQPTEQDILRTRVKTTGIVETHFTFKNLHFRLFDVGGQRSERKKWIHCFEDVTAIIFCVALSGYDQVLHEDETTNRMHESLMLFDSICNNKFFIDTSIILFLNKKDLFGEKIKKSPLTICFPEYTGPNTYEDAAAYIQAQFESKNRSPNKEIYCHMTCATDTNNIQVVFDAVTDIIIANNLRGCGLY
INS promoter inh cell count: recorded beside INS promoter inh, whose call it bears; normalized cell count, %; measured here: cell count, toxicity; reference of the scale not given here;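 cells exposed to compound for 48 h; stained nuclei by imaging scaled within each plate; lower means fewer cells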
HSV replic up primary fold: also measured in HSV replic up; calls as there; fold increase; compound at 10 µM; measured here: primary screen fold increase 10 uM; tested in PC3 cells;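 GFP signal in the first replicate; 1 = infected wells without compound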
Numbers without * were called inactive; i = inactive; · = no result given.

structure,HSV replic up,HSV replic up primary fold,PKD1 kinase inh,INS promoter inh,INS promoter inh cell count,RGS16-Gao HTS,GALR2 ag
N#CCCN(C(=O)COC(=O)c1ccc2c(=O)n3c(nc2c1)CCC3)c1ccccc1,i,0.89,-2,·,·,99,·
Cc1cc(C(=O)OCC(=O)Nc2nnc(C(C)C)s2)c2ccccc2n1,i,1,-12,0,94,93,-0.1
O=C(NCCc1ccc(Cl)cc1)c1nnc(Cc2ccc(Cl)cc2)o1,·,·,-14,-20,80,105,0.0
CC(=O)N(c1nc(CCl)cs1)c1c(C)cc(C)cc1C,i,0.93,-7,-3,121,79,-1.3
Cc1nnsc1-c1nc2ccccc2[nH]1,i,0.91,5,52,93,97,-3.7
OCCC1CN(Cc2cnc(-c3ccccc3)s2)CCN1C1CCCCC1 (stereo not given),i,0.96,-9,·,·,112,·
COc1ccc(-c2cn3cc(C(=O)NN)ccc3n2)cc1,i,0.66,-7,·,·,103,·
CCN(CC)c1ccc2c(c1)C(=O)N(C)C2=O,i,1.1,-1,68,133,98,0.0
Cc1nn(CCC(=O)NNC(=S)NCC(C)C)c(C)c1Br,i,0.98,-4,-27,93,106,0.0
O=C(CN1C2=NCCCN2c2ccccc21)c1cccc(Br)c1,i,0.71,-7,8,61,135,-1.0
OCC1(c2cc(C(F)(F)F)n[nH]2)CCCCC1,i,0.76,5,48,109,94,-2.1
CCc1ccc(NC(=O)N(CCN2CCOCC2)Cc2ccc3c(c2)CCCN3CC)cc1,i,0.87,-1,8,158,105,-0.1
CCOc1ccc2[nH]c(SCC(=O)OC)c([N+](=O)[O-])c2c1,i,0.99,-3,·,·,105,·
CCCN1CCN(C(c2cc3cc4c(cc3[nH]c2=O)OCO4)c2nnnn2C(C)(C)C)CC1 (stereo not given),i,1,-6,50,80,107,-1.5
Nn1c(SCC(=O)Nc2ccccc2)nnc1-c1cccnc1,i,0.9,-7,-14,40,95,1.3
O=c1cc(N2CCc3ccccc3C2)[nH]c(=O)n1-c1ccc(Br)cc1,i,0.94,1,0,106,99,-1.3
CC(C)(C)c1ccc(OC(=O)Cn2c(C(F)(F)F)nc3ccccc32)cc1,·,·,2,·,·,103,-2.5
O=C(C1CCCN(c2nnc(-n3cccc3)s2)C1)N1CCN(c2ccccc2)CC1 (stereo not given),i,0.96,-2,·,·,94,-2.6
CCNS(=O)(=O)c1ccc(NC(=S)NCc2ccco2)cc1,i,1,-8,-11,155,96,-0.8
COCC(C)OC(=O)c1c(N)n(CCCN2CCOCC2)c2nc3ccccc3nc12 (stereo not given),i,0.85,·,·,·,89,·
N#Cc1c(F)cccc1NCc1cccs1,i,0.79,·,·,·,99,·
c1ccc(-c2cccc(-c3ccccn3)n2)nc1,i,0.57,8,·,·,101,-0.3
CCOC(=O)C1=C(C)SC2=NS(=O)(=O)CCN21,i,0.98,-8,·,·,96,-1.9
COCC(C)n1c(C)cc(C(=O)CSc2nnnn2-c2ccc(O)cc2)c1C (stereo not given),i,1,-3,-39,174,104,·
O=C(Nc1ccc(F)cc1)C1CCC(N2C(=O)c3ccccc3C2=O)CC1 (stereo not given),i,0.88,-7,32,147,96,-0.8
CCOC(=O)c1c(-c2ccc(C)cc2)csc1NC(=O)CCN1CC(C)OC(C)C1 (stereo not given),·,·,0,·,·,136,-0.1
O=C1c2ccccc2NC(c2ccc3c(c2)OCCO3)N1c1ccc2c(c1)OCCO2 (stereo not given),i,0.82,-12,0,85,103,-2.1
CCCOc1cccc(OCCSc2nc(C)cc(=O)[nH]2)c1,i,0.91,-1,·,·,90,-3.1
O=C(O)c1cccc(-c2ccc(/C=N/NC(=O)C3COc4ccccc4O3)o2)c1 (stereo not given),i,1.1,-4,·,·,56,·
COc1ccc(CC(=O)Nc2cccc(C(=O)NN3C(=O)c4ccccc4C3=O)c2C)cc1,i,0.88,-5,-17,57,26,-0.5
CCO[C@@H]1OC(C(=O)NCc2nc3ccccc3[nH]2)=C[C@H](C2CCCCC2)[C@H]1CCCO,i,0.88,4,·,·,99,·
Cc1ccc(C)c(NCc2n[nH]c(=S)n2-c2ccccc2)c1,i,0.85,-2,0,136,98,·
CC(C)NCC(O)COCc1ccc(Cl)cc1 (stereo not given),i,0.98,3,33,155,100,-2.4
COC(=O)Cc1[nH]n(-c2nc3ccccc3s2)c(=O)c1C(C)=Nc1ccc(C)cc1,i,0.96,0,·,·,103,·
Cc1cc(C)nc(N2CCN(CC(=O)NCc3ccccc3)CC2)n1,i,0.9,-13,56,61,104,-0.4
FC(F)Sc1nc(-c2ccccc2)c(-c2ccccc2)n1C(F)F,i,1.1,5,15,104,106,0.0
OCCN1CCN(CC(O)COCC2COc3ccccc3O2)CC1 (stereo not given),i,1.1,-1,·,·,102,·
O=C(COc1ccc(Br)cc1)N1CCc2ccccc21,i,1.1,·,·,·,105,·
CC(=C/c1ccccc1)/C=N/Nc1nc(N2CCOCC2)nc(N2CCOCC2)n1,i,0.91,-11,33,66,56,-0.4
CCN1CCN(C(c2ccccc2F)c2nnnn2Cc2ccc3c(c2)OCO3)CC1 (stereo not given),i,0.98,9,-21,82,97,-2.1
Cc1ccc(C(O)(c2ccccc2)c2ccccc2C(C)N(C)C)c(C)c1 (stereo not given),i,0.9,-2,·,·,104,-0.6
NC(N)=Nc1nc(CCN2C(=O)c3ccccc3C2=O)cs1,i,0.89,-6,6,54,96,-1.1
O=C(NC(Cc1ccccc1)C(=O)O)/C(=C/c1ccc(Cl)cc1)NC(=O)c1ccccc1 (stereo not given),i,0.81,0,27,133,107,·
O=[N+]([O-])c1ccc(/C=N/NC(=S)Nc2ccccc2)o1,i,0.98,2,-9,118,98,-2.3
CN(C)S(=O)(=O)c1cccc(-c2csc(=Nc3ccccc3)n2CCCN2CCOCC2)c1,i,1,·,·,·,101,·
O=C(O)CCC(=O)NNC(=O)c1ccc([N+](=O)[O-])cc1,i,0.92,·,·,·,99,·
CCOC(=O)c1c(-c2ccccc2)csc1NC(=O)CSc1nnc(C)s1,i,1,-12,38,83,117,1.0
N#Cc1c[nH]n2c(=O)c3c(nc12)CCC3,i,1.1,-8,·,·,104,·
CC(=O)c1c(C)[nH]c(C(=O)COC(=O)c2cc(S(=O)(=O)N(C)c3ccccc3)ccc2Cl)c1C,i,0.94,-4,22,117,103,-1.2
Cn1c(Cl)cnc1C(O)(c1ccccc1)c1ccccc1,i,0.84,·,·,·,100,·
O=C(O)Cc1ccc(C(=O)c2ccc(Cl)cc2)s1,i,1.1,-3,i,46,99,-3.3
CC(C)(C)c1cc(C(=O)NNc2ccc(OC(F)(F)F)cc2)n(Cc2ccccc2)n1,i,1,·,·,·,97,·
CCN(CC)S(=O)(=O)c1ccc(Nc2ccc(-c3ccc4c(c3)OCCO4)nn2)cc1,i,0.87,-1,57,118,108,-1.6
Cc1c(C)n(C(=O)CN2CCC(C(N)=O)CC2)c2ccccc12,i,0.88,-2,0,107,101,-1.8
O=C(CSc1nnc2ccccn12)NCCN1C(=O)CSC1=O,i,0.88,-6,-1,185,101,-1.9
O=[N+]([O-])c1cc(/C=N/NC(=S)Nc2ccccc2Cl)ccc1Cl,i,0.86,2,·,·,106,·
CC1CCN(CC(=O)c2cccs2)CC1,i,1,-7,-35,93,102,·
O=C(CCN1C(=O)C2CC=C(Cl)CC2C1=O)N1CCCCC1 (stereo not given),i,0.91,-4,48,97,99,0.6
CCOc1ccc(OCc2ccc(C(=O)NCc3ccncc3)o2)cc1,i,0.76,0,23,65,93,0.7
CN(C)S(=O)(=O)c1ccc(C(=O)Nc2nnc(SCc3cccc4ccccc34)s2)cc1,i,1.1,-4,24,173,105,0.7

Shown with two lines to a compound: entries from further up
Each structure is followed by: HSV replic up, HSV replic up primary fold, PKD1 kinase inh, INS promoter inh, INS promoter inh cell count, RGS16-Gao HTS, GALR2 ag
Cc1c(C)n(C(=O)CN2CCC(C(N)=O)CC2)c2ccccc12
 : i, 0.88, -2, 0, 107, 101, -1.8
O=C(CCN1C(=O)C2CC=C(Cl)CC2C1=O)N1CCCCC1 (stereo not given)
 : i, 0.91, -4, 48, 97, 99, 0.6
CN(C)S(=O)(=O)c1ccc(C(=O)Nc2nnc(SCc3cccc4ccccc34)s2)cc1
 : i, 1.1, -4, 24, 173, 105, 0.7
N#Cc1c[nH]n2c(=O)c3c(nc12)CCC3
 : i, 1.1, -8, ·, ·, 104, ·

Next section:
structure,HSV replic up,HSV replic up primary fold,PKD1 kinase inh,INS promoter inh,INS promoter inh cell count,RGS16-Gao HTS,GALR2 ag
COc1cc(C#N)c(NC(=O)CN2CCN(CCO)CC2)cc1OC,i,0.96,1,·,·,108,·
COc1ccc(/C=N/NC(=O)C(C)Sc2ccccn2)cc1[N+](=O)[O-] (stereo not given),i,0.97,-3,-22,125,105,·
O=C(CC1CCC1)NC(c1ccccc1)c1ccccc1,i,0.96,-2,·,·,100,·
CCN(CC)CC(C)(C)NS(=O)(=O)c1ccc(Cl)cc1,i,0.95,12,-29,84,100,-0.1
Cc1nnc(SC(C)C(=O)NCC2CCCO2)n1-c1ccccc1 (stereo not given),i,0.79,-4,-34,82,107,0.4
COCC(=O)Nc1ccc(Nc2ccccc2)cc1,i,0.71,5,33,102,97,1.2
COc1ccc(/C=N\NC(=O)c2c(C)nc3ccc(Br)cn23)cc1,i,0.58,-3,-346,9,102,-0.3
Cc1ccc(C(=O)O)cc1NC(=O)Nc1ccc2c(c1)OCO2,i,1,1,-44,98,104,·
CSC(=NC#N)N1CCN(c2cccc(Cl)c2)CC1,i,1.1,-6,0,86,99,-1.2
CSC(=NC(C)c1ccccc1)NS(=O)(=O)c1cccs1 (stereo not given),i,0.95,2,-76,63,104,-0.4
COC(=O)c1ccc(CSc2nnc(NC(C)C)s2)cc1,i,0.89,-3,-3,93,104,-1.8
CCOc1cccc2sc(NC(=O)c3ccc(Br)s3)nc12,i,0.92,0,·,·,79,-2.5
COc1ccc(/C=C(/NC(=O)c2ccco2)C(=O)N2CCCC2=O)cc1,i,1,-6,10,94,103,·
Cc1cc(NCCCO)n2nc(-c3cccs3)cc2n1,i,0.9,-1,·,·,102,·
Cc1cc(C)n(-c2ccc(C(=O)Nc3sccc3C(N)=O)cc2)n1,i,0.95,-6,·,·,92,-1.1
Nn1c(SCc2cccc(Br)c2)nnc1-c1ccncc1,i,1.1,·,·,·,99,·
Cc1cc(C=O)c(C)n1-c1cc(C(F)(F)F)ccc1N1CCOCC1,·,·,-4,20,148,101,0.4
Cc1ccc(-c2n[nH]c(=O)c3ccccc23)cc1N,i,0.86,-7,0,57,102,-0.6
O=C(NCc1cccs1)C(=O)NCC1OCCCN1S(=O)(=O)c1ccc(F)cc1 (stereo not given),i,0.91,2,·,·,104,-0.7
COc1cc(C(=O)OC(C)C(=O)Nc2ccc3c(c2)OCO3)ccc1OCc1c(C)noc1C (stereo not given),i,0.97,-12,0,157,103,-1.5
Cc1ccc(/C=N/n2c(C)nnc2C)o1,i,1.2,-1,·,·,94,-1.0
N#CC(c1nc2ccccc2nc1OCCO)S(=O)(=O)c1ccccc1 (stereo not given),i,1.1,·,·,·,95,·
CCn1nc(C)c(Br)c1-c1nc(-c2ccc(C)cc2)no1,i,1.1,·,·,·,101,·
O=C(C1CCC1)N1CCC(O)(c2cccc(F)c2)CC1,i,0.93,-2,-33,129,111,·
CSc1n[nH]c(NCc2cccs2)n1,i,1,-5,57,149,100,-0.6
Nc1c(C(=O)O)sc2nc(-c3ccc(F)cc3)cc(-c3ccccc3)c12,i,1.1,·,·,·,100,·
CC(=O)c1ccc(N2CCN(C(=O)c3ccco3)CC2)c(F)c1,i,0.91,7,12,119,100,-3.4
CC1(C)OC(C)(C)/C(=C/Nc2ccccc2)C1=O,i,0.98,6,0,110,116,-0.5
Cc1cccc(-c2ncc(CN3CCC(CO)(CCCc4ccccc4)CC3)cn2)c1,i,0.86,-9,·,·,99,·
CCN(CC)c1ccc(C=Nc2ccc(N(C)C)cc2)c(O)c1,i,0.96,-5,-13,132,46,-0.7
CCCCc1cc2c(c(NC(C)=O)n1)c(=O)oc1ccccc12,i,0.95,-11,·,·,106,-1.4
NC(=O)CCn1nc(-c2ccc(Cl)cc2)c2ccccc2c1=O,i,0.79,-7,15,100,101,-1.9
COc1ccc(N(C)S(=O)(=O)c2cccc3nsnc23)cc1,i,0.89,2,·,·,101,·
